VACV E9 pol inh – inhibitors of vaccinia virus processive DNA synthesis (E9 polymerase); actives 0.94% (n = 46,000); in vitro processive DNA synthesis, absorbance read-out; hits give low values; some inactives read as strong as hits; normalized absorbance, % (test concentration not listed);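 active = replicate mean up to 90% and picked by the depositor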;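 also: 100% = median of the test wells of a plate; 100 nL library stock went into each well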
Starred values were filed as active, the others as inactive. A portion of the library; rates above refer to the full screens.

For CN(C(=O)CCn1c(=O)oc2ccccc21)c1ccccc1 the results were VACV E9 pol inh 102.7.
`O=C1CS(=O)CN1c1ccc(Br)cc1` (stereo unspecified) gave VACV E9 pol inh 87.4.
CCN1C(=O)OC(C)(CCc2ccccc2)C1(C)O (stereo unspecified) was read as VACV E9 pol inh 95.8.
For CCCc1c(C#N)c(N)[nH]c(=S)c1C#N the results were VACV E9 pol inh 98.6.
Screening CCc1ccc(Oc2coc3cc(OC(C)C(=O)OCC(C)C)ccc3c2=O)cc1 (stereo unspecified) returned VACV E9 pol inh 100.2.
For CC1CCCCC1NC(=O)CN1N=C(c2ccccc2)CCC1=O (stereo unspecified) the results were VACV E9 pol inh 111.3.
CCOC(=O)c1ccc(NC(=S)NN2CCN(C)CC2)cc1 was read as VACV E9 pol inh 100.8.
For O=C(CSc1nccn1-c1ccc(F)cc1)Nc1ccc2c(c1)OCCO2 the results were VACV E9 pol inh 101.7.
`COc1ccc2[nH]cc(CCNC(=O)NC34CC5CC(CC(C5)C3)C4)c2c1` gave VACV E9 pol inh 96.3.
For O=C(CSc1cccc[n+]1[O-])N(CCc1ccccc1)Cc1ccccc1 the results were VACV E9 pol inh 102.6.
For Cc1ccc(-c2cc(C(=O)N(C)C3CCCCC3)no2)cc1 the results were VACV E9 pol inh 102.4.
Screening CCc1c(O)nc(SCC(=O)NC(C)(C)C)n(-c2ccc(F)cc2)c1=O returned VACV E9 pol inh 93.5.
`CCCCC/C=C\C/C=C\C/C=C\CCCCCCC(=O)O` gave VACV E9 pol inh 100.1.
Screening CNC(=S)NCc1ccc2[nH]c3c(c2c1)CCCC3 returned VACV E9 pol inh 94.6.
Screening CC(C)(C)c1csc(NC(=O)c2ccc(Br)o2)n1 returned VACV E9 pol inh 99.9.
Screening Cc1ccc(S(=O)(=O)c2nc(-c3ccccc3Br)oc2N(C)C)cc1 returned VACV E9 pol inh 100.6.
For CCOC(=O)c1ccc(N=C2SC(C(=O)O)CC(=O)N2Cc2cccs2)cc1 (stereo unspecified) the results were VACV E9 pol inh 100.2.
For c1ccc(-c2noc(CNC3CCCCC3)n2)cc1 the results were VACV E9 pol inh 104.6.
CN(C)c1ccc(/C=C2/Sc3ccccc3C2=O)cc1 was read as VACV E9 pol inh 100.1.
Screening COc1ccc(CNC(=O)c2ccc(OC)cc2OC)cc1 returned VACV E9 pol inh 102.1.
For Cc1cc(O)c(C=Nc2ccc(F)cc2)c(=O)o1 the results were VACV E9 pol inh 106.4.
N#CCc1ccc(NC2(C#N)CCCCC2)cc1 was read as VACV E9 pol inh 105.1.
Screening FC(F)(F)C1(C(F)(F)F)N=C(c2cccnc2)N(c2ccccc2)N1 returned VACV E9 pol inh 95.6.
`OCCNc1ncnc2ccccc12` gave VACV E9 pol inh 99.1.
Screening c1ccc(-c2nn[nH]n2)cc1 returned VACV E9 pol inh 102.3.
For COC(=O)c1cccc(-n2c(CCC(=O)O)ccc2-c2ccccc2)c1 the results were VACV E9 pol inh 99.1.
COc1ccc(C(=O)Nc2ccc(N3CCOCC3)c(F)c2)cc1 was read as VACV E9 pol inh 116.9.
O=c1c(-c2ccccc2)c(O)c2cccc3c4ccccc4n1c23 was read as VACV E9 pol inh 90.1.
Screening Cc1ccc(C(=O)N(c2ccccn2)C(C)c2ccco2)cc1 (stereo unspecified) returned VACV E9 pol inh 103.8.
`Cc1ccccc1NC(=O)COc1ccc2c(c1)OC(C)(C)CC2=O` gave VACV E9 pol inh 119.2.
Screening C1CCN2C[C@H]3C[C@H](CN4CCCC[C@@H]34)[C@H]2C1 returned VACV E9 pol inh 100.6.
`CS(=O)(=O)N1CC2CCCN2c2ccc(C(F)(F)F)cc21` (stereo unspecified) gave VACV E9 pol inh 95.6.
For COc1cccc(N2C(=O)/C(=C/c3cccc(O)c3)SC2=S)c1 the results were VACV E9 pol inh 100.8.
Screening O=C(COC(=O)C1CCCCC1)Nc1ccc(N2CCCCC2)cc1 returned VACV E9 pol inh 98.8.
Cc1oc(-c2ccccc2Cl)nc1CS(=O)CC(=O)NC1CC1 (stereo unspecified) was read as VACV E9 pol inh 83.9.
`O=C1N=C(N2CCN(C(=O)c3cc4ccccc4oc3=O)CC2)S/C1=C\c1cccs1` gave VACV E9 pol inh 101.1.
Screening COc1ccccc1NC(=O)c1ccc(N)cc1 returned VACV E9 pol inh 98.1.
CC(C)NC(=O)C(C)n1ncn2cccc2c1=O (stereo unspecified) was read as VACV E9 pol inh 103.1.
`C=C[C@H]1CN2CC[C@H]1C[C@@H]2[C@@H](OC(=O)OCC)c1ccnc2ccc(OC)cc12` gave VACV E9 pol inh 98.7.
Screening COC(=O)c1cc2sccc2n1C(C)C(=O)Nc1ccccc1OC (stereo unspecified) returned VACV E9 pol inh 98.6.
Screening O=C(c1nc(-c2ccc(Cl)cc2)n2c1CCCCC2)N1CCc2ccccc21 returned VACV E9 pol inh 106.8.
Screening COc1ccc(C(=O)NC(C)C(c2cccs2)N2CCOCC2)c(OC)c1 (stereo unspecified) returned VACV E9 pol inh 100.7.
N#C/C(=C/c1cc(Br)c(Br)o1)c1ccccc1 was read as VACV E9 pol inh 101.3.
For CCc1ccc(N2C(=O)CC(Sc3ccccn3)C2=O)cc1 (stereo unspecified) the results were VACV E9 pol inh 99.9.
For O=C(NCc1noc2ccccc12)Nc1cccc(C(F)(F)F)c1 the results were VACV E9 pol inh 96.1.
`CC(C)c1ccc(C2C(C#N)=C(SCC(N)=O)NC3=C2C(=O)CCC3)cc1` (stereo unspecified) gave VACV E9 pol inh 101.2.
For COc1ccc(N=Cc2c(O)cc(C)oc2=O)c(OC)c1 the results were VACV E9 pol inh 99.8.
`COc1ccc(C(C#Cc2ccccc2)N2CCOCC2)cc1` (stereo unspecified) gave VACV E9 pol inh 103.5.

11 structures already listed, sorted by number of heavy atoms, lowest first:
N#C/C(=C/c1cc(Br)c(Br)o1)c1ccccc1 was read as VACV E9 pol inh 101.3.
Screening COc1ccccc1NC(=O)c1ccc(N)cc1 returned VACV E9 pol inh 98.1.
`CS(=O)(=O)N1CC2CCCN2c2ccc(C(F)(F)F)cc21` (stereo unspecified) gave VACV E9 pol inh 95.6.
For CCc1ccc(N2C(=O)CC(Sc3ccccn3)C2=O)cc1 (stereo unspecified) the results were VACV E9 pol inh 99.9.
`COc1ccc(C(C#Cc2ccccc2)N2CCOCC2)cc1` (stereo unspecified) gave VACV E9 pol inh 103.5.
For O=C(NCc1noc2ccccc12)Nc1cccc(C(F)(F)F)c1 the results were VACV E9 pol inh 96.1.
Screening O=C(COC(=O)C1CCCCC1)Nc1ccc(N2CCCCC2)cc1 returned VACV E9 pol inh 98.8.
`CC(C)c1ccc(C2C(C#N)=C(SCC(N)=O)NC3=C2C(=O)CCC3)cc1` (stereo unspecified) gave VACV E9 pol inh 101.2.
Screening O=C(c1nc(-c2ccc(Cl)cc2)n2c1CCCCC2)N1CCc2ccccc21 returned VACV E9 pol inh 106.8.
`C=C[C@H]1CN2CC[C@H]1C[C@@H]2[C@@H](OC(=O)OCC)c1ccnc2ccc(OC)cc12` gave VACV E9 pol inh 98.7.
`O=C1N=C(N2CCN(C(=O)c3cc4ccccc4oc3=O)CC2)S/C1=C\c1cccs1` gave VACV E9 pol inh 101.1.

Next part:
For CC(C)(CC(=O)Nc1ccc(F)cc1)Sc1ccc(Cl)cc1 the results were VACV E9 pol inh 103.7.
For CCN1/C(=C/c2ccc3cc(C)ccc3[n+]2C)Sc2cc(OC)ccc21 the results were VACV E9 pol inh 24.5*.
COC(=O)Nc1ccc(SCC(=O)Nc2ccc(C)cc2)cc1 was read as VACV E9 pol inh 98.6.
`COCc1cc(C)nc(N)c1C#N` gave VACV E9 pol inh 100.2.
For Cc1cc(C(=O)OCC(=O)NC2CCCCC2)c(C)o1 the results were VACV E9 pol inh 104.9.
CCCN1C(=O)/C(=C/c2ccc(CC)cc2)NC1=S was read as VACV E9 pol inh 99.5.
Screening O=C1NC(=O)/C(=C\c2ccccc2)S1 returned VACV E9 pol inh 74.1*.
For CC(=O)OCC[N+](C)(C)C the results were VACV E9 pol inh 99.2.
For COc1cccc2c(=O)n(CC(=O)NC3CCCC3)ccc12 the results were VACV E9 pol inh 103.3.
For O=C(Nc1nccs1)C1CCCN(C(=O)c2cnn(-c3ccccc3)c2-n2cccc2)C1 (stereo unspecified) the results were VACV E9 pol inh 100.9.
`O=C1CCCN2N=C(SC/C=C/c3ccccc3)SC2=N1` gave VACV E9 pol inh 99.6.
`CCCC(/N=C/c1cc(Cl)ccc1O)/N=C/c1cc(Cl)ccc1O` gave VACV E9 pol inh 92.0.
For O=C(Nc1ccccc1)Oc1ccccc1N1CCCCC1 the results were VACV E9 pol inh 102.5.
`COC(=O)c1ccccc1N(C)S(C)(=O)=O` gave VACV E9 pol inh 98.6.
For CN(C)c1ccc2c3c(ccc(N(C)C)c13)COC2 the results were VACV E9 pol inh 107.1.
For CCOC(=O)c1c(C)n(-c2ccccc2)c2ccc3c(c12)CN(Cc1ccccc1)CO3 the results were VACV E9 pol inh 100.3.
CSc1c(-c2ccccn2)c(N)nn1C(=O)C1CCC1 was read as VACV E9 pol inh 101.0.
Screening Cc1ccc2c(Cl)cc(Cl)c(OCC(=O)Nc3c(F)cccc3F)c2n1 returned VACV E9 pol inh 94.6.
Screening Cc1ccccc1N1C(=O)NC(=O)/C(=C\C=C\c2ccco2)C1=O returned VACV E9 pol inh 100.5.
Screening CCCc1ccc(/C(=N/O)C(=O)O)s1 returned VACV E9 pol inh 98.3.
For Cc1sc2ncn(C(C)C(=O)O)c(=O)c2c1C (stereo unspecified) the results were VACV E9 pol inh 104.0.
COC(CN(C)C(=O)c1ccc2c(c1)NC(=O)c1ccccc1S2)OC was read as VACV E9 pol inh 103.8.
For Cc1cc(/C=C/c2ccc3cc(N(C)C)ccc3[n+]2C)c(C)n1-c1ccccc1 the results were VACV E9 pol inh 99.8.
Screening CC(=O)N1CC2c3ccccc3CCN2C1c1ccccc1 (stereo unspecified) returned VACV E9 pol inh 99.7.
Screening CC1OC(=O)C(C(C)C)NC(=O)C(C(C)C)OC(=O)C(C(C)C)NC(=O)C(C)OC(=O)C(C(C)C)NC(=O)C(C(C)C)OC(=O)C(C(C)C)NC(=O)C(C)OC(=O)C(C(C)C)NC(=O)C(C(C)C)OC(=O)C(C(C)C)NC1=O (stereo unspecified) returned VACV E9 pol inh 99.2.
For CN(C)c1ccc(/C=C(\C#N)NC(=O)c2ccccc2)cc1 the results were VACV E9 pol inh 100.0.
`O=C(O)CCC(=O)c1ccc(Br)cc1` gave VACV E9 pol inh 101.6.
Screening O=C(Cn1c(=O)c2cccn2c2ccccc21)NCCCN1CCCCC1 returned VACV E9 pol inh 96.3.
For CCOC(=O)CSc1nc2ccccc2n2cnnc12 the results were VACV E9 pol inh 91.8.
CCC(C)NCc1ccc(C(=O)OC)o1 (stereo unspecified) was read as VACV E9 pol inh 99.6.
O=C1/C(=C/c2cccc(Cl)c2)CC/C1=C\c1cccc(Cl)c1 was read as VACV E9 pol inh 100.8.
Screening C=CCNc1oc(CC(C)C)nc1C#N returned VACV E9 pol inh 98.9.
Screening CN(C(=O)COC(=O)c1ccc(C#N)cc1)c1ccccc1 returned VACV E9 pol inh 87.8.
Screening COc1cc(C2(c3ccc(N)c(OC)c3)CCCCC2)ccc1N returned VACV E9 pol inh 90.0.
Screening Oc1ccc2ccccc2c1C=Nc1ccccc1 returned VACV E9 pol inh 91.6.
Screening CC1Oc2ccccc2OC1(O)c1ccc(Br)cc1 (stereo unspecified) returned VACV E9 pol inh 99.4.

The closing 2 compounds of the section above are carried over, then new ones follow:
Screening Oc1ccc2ccccc2c1C=Nc1ccccc1 returned VACV E9 pol inh 91.6.
Screening CC1Oc2ccccc2OC1(O)c1ccc(Br)cc1 (stereo unspecified) returned VACV E9 pol inh 99.4.
Fc1ccc(Nc2nc3ccccc3o2)c(F)c1 was read as VACV E9 pol inh 103.2.
CC1(C)OCC(C2OC(=O)C3OC(C)(C)OC32)O1 (stereo unspecified) was read as VACV E9 pol inh 99.7.
For CC(C)NC(=O)COc1ccc2c(c1)C(=O)CC(C)(C)O2 the results were VACV E9 pol inh 101.0.
For O=C1CC(c2ccccc2)Sc2nc(-c3ccccc3)nn21 (stereo unspecified) the results were VACV E9 pol inh 100.2.
`CCn1c(=N)n(CCCOc2ccc(Br)cc2)c2ccccc21` gave VACV E9 pol inh 99.6.
Screening CCOc1cc2sc(N3CCC(C(=O)N(C)Cc4ccccc4)CC3)nc2cc1Br returned VACV E9 pol inh 93.8.
Screening c1cnc2cc(Oc3ccc4nccnc4c3)ccc2n1 returned VACV E9 pol inh 93.6.
`Cc1ccc(/C=C/C(=O)O)cc1` gave VACV E9 pol inh 97.3.
For CCN(CC)C(=S)SC(=O)c1ccccc1Cl the results were VACV E9 pol inh 105.7.
For Oc1ccc(C(c2ccc(O)cc2)(C(F)(F)F)C(F)(F)F)cc1 the results were VACV E9 pol inh 105.0.
`O=C(O)c1ccc(Sc2ccccn2)o1` gave VACV E9 pol inh 99.6.
For CCN(CC)C(=O)/C=C/c1cccs1 the results were VACV E9 pol inh 92.3.
Cc1ccc(CNC(=O)CSC2=Nc3ccccc3C3=NC(Cc4ccccc4)C(=O)N23)cc1 (stereo unspecified) was read as VACV E9 pol inh 95.8.
`CC1=CC(C)(C)NC(=O)N1c1ccccc1` gave VACV E9 pol inh 101.9.
For Cc1ccsc1C(=O)NC(C)C(c1cccs1)N1CCCC1 (stereo unspecified) the results were VACV E9 pol inh 97.4.
Screening CCS(=O)(=O)N1CCN=C1SCc1ccccc1C returned VACV E9 pol inh 78.5*.
For COCC(=O)N(c1ccc(OC)cc1)C1C=CS(=O)(=O)C1 (stereo unspecified) the results were VACV E9 pol inh 97.6.
Screening CCN(CC)C(=O)Cn1cc(S(=O)(=O)CC(=O)Nc2ccccc2C(F)(F)F)c2ccccc21 returned VACV E9 pol inh 99.8.
`Cc1cccc(Oc2ccc(NC(=O)CCCC(=O)O)cc2)c1` gave VACV E9 pol inh 95.8.
For O=C(O)CSc1c2c(nc3cc(C(=O)NCC4COc5ccccc5O4)ccc13)CCC2 (stereo unspecified) the results were VACV E9 pol inh 99.3.
`CC1(C)Cc2c(sc3ncn4nc(COc5ccc(Cl)cc5)nc4c23)C(C)(C)N1` gave VACV E9 pol inh 99.6.
For O=C(Oc1cccc(Br)c1)c1cccnc1Cl the results were VACV E9 pol inh 98.7.
`CC1(C)CC(=S)C=C(N2CCCCC2)C1` gave VACV E9 pol inh 99.7.
Screening O=C(O)CC(c1ccccc1)c1cc(Cl)ccc1O (stereo unspecified) returned VACV E9 pol inh 73.5*.
